Source: PubChem (several laboratories)
RGS16-Gao: modulators of RGS16 binding to Galphao, primary screen, biochemical, human proteins, multiplexed bead flow cytometry; binding response (% of control), % at 10 µM; bead-based flow cytometry RGS16-Galphao binding, fluorescence; actives lie on both sides; AID 1441, 2008; actives 0.38% (n = 220,000); Regulator of G-protein signaling 16 (Homo sapiens) + Guanine nucleotide-binding protein …;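 active = below 25% or above 175%, edge rows of some plates excepted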;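 also: Galphao activated by GDP with aluminum fluoride before binding; 100% = wells without compound and 0% = beads without RGS; some results beyond the cut were filed as inactive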
GALR2 ag: GALR2 receptor agonists, primary screen, cell-based. Galanin receptor type 2 (Homo sapiens), O43603. GALR2-expressing cells, agonist activation read-out. activation, %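 (tested at 5 µM)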. actives 0.48% (n = 140,000). AID 803, 2007;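 active = above mean plus 3 SD of all compounds, about 5% in these data, not always enough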;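 also: 0% = vehicle buffer wells and 100% = reference agonist at full effect; tested in CHO reporter cells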
PKD1 kinase inh: inhibitors of human PKD1 kinase, biochemical, fluorescence polarization | inhibition, %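 (about 10 µM by stock and volumes)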 | actives 0.056% (n = 200,000) | PKD1 kinase fluorescence polarization assay | AID 797, 2007;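 active = inhibition of 50% or more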;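 also: controls were vehicle for no effect and a reference inhibitor for full effect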
Target sequence (Q15139 whole entry, looked up): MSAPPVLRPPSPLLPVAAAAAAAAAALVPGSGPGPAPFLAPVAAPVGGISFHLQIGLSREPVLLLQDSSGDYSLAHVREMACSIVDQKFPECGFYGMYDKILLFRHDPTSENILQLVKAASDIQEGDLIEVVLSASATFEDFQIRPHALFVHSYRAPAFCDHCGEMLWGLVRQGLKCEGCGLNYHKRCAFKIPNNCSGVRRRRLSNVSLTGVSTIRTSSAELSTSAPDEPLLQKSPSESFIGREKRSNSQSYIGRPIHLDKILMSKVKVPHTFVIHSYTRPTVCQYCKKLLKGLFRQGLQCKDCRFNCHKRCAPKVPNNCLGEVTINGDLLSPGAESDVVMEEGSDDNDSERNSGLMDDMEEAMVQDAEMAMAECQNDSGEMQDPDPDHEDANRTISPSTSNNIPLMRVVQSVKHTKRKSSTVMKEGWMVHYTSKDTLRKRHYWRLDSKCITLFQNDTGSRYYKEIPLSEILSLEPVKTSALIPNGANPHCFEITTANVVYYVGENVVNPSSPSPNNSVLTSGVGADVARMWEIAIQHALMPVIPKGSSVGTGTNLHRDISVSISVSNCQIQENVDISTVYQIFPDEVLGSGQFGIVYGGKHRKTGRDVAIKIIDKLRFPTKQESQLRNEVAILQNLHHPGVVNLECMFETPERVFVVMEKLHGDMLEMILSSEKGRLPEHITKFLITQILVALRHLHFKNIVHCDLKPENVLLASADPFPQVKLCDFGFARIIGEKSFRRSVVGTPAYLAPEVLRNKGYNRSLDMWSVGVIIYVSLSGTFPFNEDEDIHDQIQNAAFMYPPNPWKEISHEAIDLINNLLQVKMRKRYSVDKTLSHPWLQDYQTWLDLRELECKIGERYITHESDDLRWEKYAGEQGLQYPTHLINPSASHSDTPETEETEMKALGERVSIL
INS promoter inh: inhibitors of insulin promoter-driven GFP, primary screen, imaging, TRM-6 cells (human fetal islet line), eGFP reporter, cell count | reporter expression induced with tamoxifen | inhibition, % at 2 µM | actives 0.9% (n = 130,000);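 active = inhibition above the mean plus 3 SD, with well images judged a real hit on visual review, cut at about 60% in these data, passing the limit was not always enough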
HSV replic up: enhancers of HSV replication in host cells, fold increase, host cell viability. HSV replication augmentation in cells. maximum fold increase. actives 0.005% (n = 220,000). AID 1956, 2009;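 active = peak rise of 1.5-fold or more in the series; tested in PC3 cells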;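 also: first round at 10 µM; read as green reporter fluorescence; hits show the peak of a series up to 25 µM; 1 = signal of infected wells without compound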
INS promoter inh cell count: further read-out of INS promoter inh, marked with its call; normalized cell count, %; measured here: cell count, toxicity; reference of the scale not given here;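 cells exposed to compound for 48 h; stained nuclei by imaging scaled within each plate; lower means fewer cells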
HSV replic up primary fold: further read-out of HSV replic up, marked with its call; fold increase; compound at 10 µM; measured here: primary screen fold increase 10 uM; tested in PC3 cells;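 GFP signal in the first replicate; 1 = infected wells without compound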
Active calls of the source: *; i = inactive; . = no result given; & = joins results of further samples.

Start of the listing, in advance:
SMILES	RGS16-Gao	GALR2 ag	PKD1 kinase inh	INS promoter inh	INS promoter inh cell count	HSV replic up	HSV replic up primary fold
C(#Cc1ccccc1)C[N+]1(CC#Cc2ccccc2)CCCC1	101	-1.4	-8	5	135	i	0.94
COc1ccc(N=C(N)N=C(N)N)c(OC)c1	112	-0.2	-1	42	88	i	1
C=CCN(CCNP(=O)(OCC)OCC)CP(=O)(OCC)OCC	108	-1.5	7	-28	171	i	0.95
Cc1cccc(N2CCN(c3ccc(N4C(=O)CCCC4=O)cc3[N+](=O)[O-])CC2)c1C	102	-0.7	-12	-4	92	i	1.1
O=C(NCCCN1CCOCC1)c1ccc(CNS(=O)(=O)c2ccc(Br)cc2)cc1	88	-2.4	1	11	51	i	1.1

All compounds of this part (from the top)
SMILES	RGS16-Gao	GALR2 ag	PKD1 kinase inh	INS promoter inh	INS promoter inh cell count	HSV replic up	HSV replic up primary fold
C(#Cc1ccccc1)C[N+]1(CC#Cc2ccccc2)CCCC1	101	-1.4	-8	5	135	i	0.94
COc1ccc(N=C(N)N=C(N)N)c(OC)c1	112	-0.2	-1	42	88	i	1
C=CCN(CCNP(=O)(OCC)OCC)CP(=O)(OCC)OCC	108	-1.5	7	-28	171	i	0.95
Cc1cccc(N2CCN(c3ccc(N4C(=O)CCCC4=O)cc3[N+](=O)[O-])CC2)c1C	102	-0.7	-12	-4	92	i	1.1
O=C(NCCCN1CCOCC1)c1ccc(CNS(=O)(=O)c2ccc(Br)cc2)cc1	88	-2.4	1	11	51	i	1.1
Cc1ccc(S(=O)(=O)Nc2ccc(-c3nc4ccc(C)cc4s3)cc2)cc1	98	2.1	7	8	149	i	0.93
Cc1cccc(NC(=S)N/N=C/c2cccn2Cc2ccc(F)cc2)c1	108	.	-3	36	131	i	0.9
Cc1ccc(CNC(=O)C2CCN(S(=O)(=O)c3cccs3)CC2)o1	100	-1.9	1	-1	66	i	1.1
O=C1NC(=O)C2(COC(c3cccc([N+](=O)[O-])c3)OC2)S1 (stereo unspecified)	94	.	-3	.	.	i	0.93
Brc1cccc2sc(N3CCCC3)nc12	106	.	1	27	115	i	1.1
CCOC(=O)C1=C(C)N(C)C(=O)NC1c1ccc(C)s1 (stereo unspecified)	100	-3.2	-6	60	101	i	0.97
O=c1cc(CSc2nnc(COc3ccccc3Cl)o2)nc2sccn12	95	-2.2	11	.	.	i	1.1
CCOP(=O)(c1ccccc1)C(O)c1ccccc1 (stereo unspecified)	58	-2.1	-2	3	123	i	1
COc1ccc(CN2CCN(C(=O)c3cc(OC)c(OC)c(OC)c3)CC2)cc1OC	102	0.4	-8	57	92	i	0.9
CC(=O)C(Sc1ncnc2sc3c(c12)CCCC3)C(C)=O	99	.	-5	45	141	i	0.92
Cc1ccccc1NC(=S)NNC(=O)c1cccnc1	100	-0.1	-2	21	185	i	0.99
O=c1[nH][nH]c(-c2ccccc2)c1C=Nc1ccccc1	103	-2.8	4	23	107	.	.
N#CCSc1ncnc2c1cnn2CCO	96	-2.5	-5	.	.	i	1
O=C(CSc1n[nH]c(-c2cc(Cl)ccc2Cl)n1)NCCN1C(=O)CSC1=O	95	-1.8	2	-6	89	i	0.91
CC(NC(=O)COC(=O)/C=C/c1ccc(Cl)cc1)c1ccccc1 (stereo unspecified)	112	.	2	-25	83	i	0.99
COc1ccc(CCNC(=O)CC2Nc3ccccc3NC2=O)cc1 (stereo unspecified)	106	-0.6	-4	58	110	i	0.94
CCC1(C)Cc2c(sc3c2c(=O)n(C)c2nnc(SCCc4ccccc4)n32)CO1 (stereo unspecified)	99	0.8	4	.	.	i	0.88
CCc1ccc(N2C(=O)c3ccc4c5c(ccc(c35)C2=O)CC4)cc1	77	0.5	0	-26	120	i	0.89
O=C(Nc1c2c(nc3ccccc13)CCCC2)c1cccc([N+](=O)[O-])c1	100	-2.4	21	-380	142	i	0.78
CCC(CC)C(=O)Nc1cc(C(=O)OC)cc(C(=O)OC)c1	95	-1.6	-8	-17	88	i	0.94
CC(C)c1ccc(-c2csc(NC(=O)c3cccs3)c2C(=O)O)cc1	100	.	1	.	.	i	0.93
CCn1c(C(=O)N2CCC(Cc3ccccc3)CC2)cc2sccc21	98	0.6	6	.	.	i	1.1
CC(C)(C)C(=O)N1CCN(c2ccc([N+](=O)[O-])c(-n3nc(-c4ccccc4)c4ccccc4c3=O)c2)CC1	104	-0.7	-6	36	137	i	0.84
CCn1c(C)[n+](CC(O)COCC2CC=CCC2)c2ccccc21 (stereo unspecified)	105	-3.0	-1	-48	102	i	1
COc1ccc(Nc2nc(N)nc(CSC(=S)N3CCCCC3C)n2)cc1 (stereo unspecified)	101	.	.	.	.	i	0.97
COc1ccccc1C(=O)N(CN1CCCC1=O)c1cccc(Cl)c1	199	-0.1	0	20	134	i	0.88
O=C(c1[nH]ncc1-c1ccccc1)C1CO1 (stereo unspecified)	99	.	.	.	.	i	1
CCOC(=O)C1=C(C)NC2=C(C(=O)CC(C)(C)C2)C1c1ccsc1 (stereo unspecified)	95	-0.6	4	40	137	i	0.98
COc1cc(C(=O)N/N=C2\CCS(=O)(=O)c3ccc(F)cc32)cc(OC)c1OC	79	-1.3	0	8	138	i	0.68
COc1cccc(-c2cc(C(F)(F)F)n3ncc(S(=O)(=O)c4ccccc4)c3n2)c1	99	-0.9	4	-7	102	i	0.86
Cc1ccc(-c2cc(C(=O)N/N=C/c3ccco3)n[nH]2)s1	99	0.2	2	.	.	i	1
Cc1cc(C)nc(NS(=O)(=O)c2ccc(NC(=S)NC(=O)c3cccnc3)cc2)n1	72	.	-2	.	.	i	0.96
S=c1[nH]nc(-c2cccnc2)n1-c1ccccc1	104	-0.2	-5	-200	103	i	0.74
CO/N=C/c1c(-c2ccc(Cl)cc2)nc2cc(C)ccn12	100	.	2	-13	142	i	0.9
CCCN1C(=O)/C(=C/c2ccc(C)o2)SC1=Nc1ccc(OC)cc1	97	-1.7	5	7	106	i	1.1
O=C(O)C1CCCCC1C(=O)Nc1ccc2c(c1)OCCO2 (stereo unspecified)	104	-1.2	4	.	.	i	0.93
CCOC(=O)C1(Cc2ccc(OC)cc2)CCN(C(=O)CN2CCCCC2=O)CC1	96	.	1	.	.	i	0.94
COCCOC(=O)/C(C#N)=C/c1cn(Cc2ccccc2)nc1-c1cccnc1	101	.	-6	.	.	i	1
CCOC(=O)C1(CC)NC(c2ccc(OC)cc2OC)C2C(=O)N(C)C(=O)C21 (stereo unspecified)	98	.	-4	.	.	i	0.97
CCOC(=O)C1=C(CN2CCN(c3ccc(F)cc3)CC2)NC(=O)NC1c1cccs1 (stereo unspecified)	39	-1.7	-10	-10	115	i	0.95
CCOC(=O)C1=C(N)N2C(=O)C(C)SC2=C(C(=O)OC)C1c1ccccc1OC (stereo unspecified)	109	-2.6	-13	-7	98	i	0.98
Cc1c(C(=O)C(=O)N2CCCc3ccccc32)c2ccccc2n1C	101	-1.1	1	.	.	i	0.81
COc1ccccc1-c1cc(C(=O)NCCc2ccccc2)no1	101	-1.9	-1	-38	86	i	0.72
C=CCNC(=S)NC(CC(=O)OC)c1ccc2c(c1)OCO2 (stereo unspecified)	97	.	-2	.	.	i	1
COc1ccc2oc(C)c(C(N)=O)c2c1	76	-2.5	11	.	.	i	0.79
COc1ccc(C(=S)N2CCN(c3cccc(Cl)c3)CC2)cc1	105&94	.	.	.	.	i	1&0.86
COc1ccc(C(=S)Nc2ccc(N(C)C)cc2)cc1	102	-3.4	-8	46	62	i	1
CCCCCC(=O)N1CC2(CC(c3cccc(NC(=O)CC(c4ccccc4)c4ccccc4)c3)=NO2)C[C@@H]1C(N)=O (stereo partly specified)	100	.	.	.	.	i	0.7
S=C(NC1CCCCC1)N1CCN(C/C=C/c2ccccc2)CC1	133	-1.2	-14	7	101	i	1
COC(=O)CCc1c(C)c(C#N)c2nc3ccccc3n2c1N1CCCC1	140	1.9	-7	-54	148	i	0.82
CCCCn1c(CCNC(=O)CC)nc2ccccc21	100	-2.7	-10	.	.	i	1
CC(=O)Nc1ccc([C@H]2[C@H](C)CC[C@H]3C(=O)N4[C@@H](CC[C@@H](C)[C@@H]4c4ccc(NC(C)=O)cc4)C(=O)N32)cc1	102	-1.4	-4	24	66	.	.
O=C(NC(=S)Nc1ccc(CN2CCCCC2)cc1)c1cc2ccccc2o1	98	.	.	.	.	i	0.95
NS(=O)(=O)c1ccc(CCNc2ncnc3c2c(-c2ccccc2)cn3-c2ccc(F)cc2)cc1	79	0.6	-16	17	105	i	0.85
COc1ccc(N2CCN(C(=O)CCNS(=O)(=O)c3cccs3)CC2)cc1	104	-1.2	0	-200	106	i	0.93

7 compounds already listed, ordered by their value in GALR2 ag, rising.
structure | RGS16-Gao | GALR2 ag | PKD1 kinase inh | HSV replic up primary fold
CCOC(=O)C1=C(C)N(C)C(=O)NC1c1ccc(C)s1 (stereo unspecified) | 100 | -3.2 | -6 | 0.97
O=C(Nc1c2c(nc3ccccc13)CCCC2)c1cccc([N+](=O)[O-])c1 | 100 | -2.4 | 21 | 0.78
O=C(CSc1n[nH]c(-c2cc(Cl)ccc2Cl)n1)NCCN1C(=O)CSC1=O | 95 | -1.8 | 2 | 0.91
COc1ccc(N2CCN(C(=O)CCNS(=O)(=O)c3cccs3)CC2)cc1 | 104 | -1.2 | 0 | 0.93
COc1ccccc1C(=O)N(CN1CCCC1=O)c1cccc(Cl)c1 | 199 | -0.1 | 0 | 0.88
Cc1ccc(-c2cc(C(=O)N/N=C/c3ccco3)n[nH]2)s1 | 99 | 0.2 | 2 | 1
CCc1ccc(N2C(=O)c3ccc4c5c(ccc(c35)C2=O)CC4)cc1 | 77 | 0.5 | 0 | 0.89

Going on with the list.
SMILES	RGS16-Gao	GALR2 ag	PKD1 kinase inh	INS promoter inh	INS promoter inh cell count	HSV replic up	HSV replic up primary fold
COc1ccc(Nc2ccc([N+](=O)[O-])cc2[N+](=O)[O-])cc1	103	.	-4	6	122	i	1
Cc1noc(/C=C/c2ccco2)c1S(=O)(=O)N1CCC(C(=O)NCc2ccco2)CC1	97	-1.6	6	.	.	i	0.92
CC(=O)NCCC(=O)Nc1ccc(C(N)=O)cc1	98	.	3	.	.	i	0.95
NNC(=O)Cn1c(SCc2ccccc2)nc2ccccc21	115	-3.0	6	34	90	i	0.89
CCOC(=O)Cn1c(=O)c2c(nc3n2CCCCN3c2ccc(C)cc2)n(C)c1=O	107	-1.1	-11	.	.	i	0.97
OCCCCNc1cccc2ccccc12	98	-3.9	-1	0	134	i	1
CCC(C)NC(=O)C1=CCN(S(=O)(=O)c2ccc(C)cc2)CC1 (stereo unspecified)	86	.	.	.	.	i	1
Cc1cccc(-c2cc(C(=O)NCCCn3ccnc3)c3ccccc3n2)c1	101	-4.5	-3	-46	74	i	0.95
Cc1cc2c(C)nc(-c3ccccc3)nc2o1	104	-2.0	-5	33	73	i	0.96
Cc1cc(C)nc(Nc2n[nH]c(-c3ccc(C(C)(C)C)cc3)n2)n1	104	.	-4	.	.	i	0.96
COC(=O)c1cn(NC(=O)/C=C/c2cc(OC)ccc2OC)c(=O)c2ccccc12	100	1.1	-10	52	93	i	1
O=C(CC1C(=O)NCCN1Cc1ccc(F)c(F)c1)NCCCn1ccnc1 (stereo unspecified)	99	.	7	14	103	i	0.98
CCOc1ccc(C(=O)N2CCN(c3ccccc3)CC2)cc1	84	.	-6	44	141	i	1.1
O=C1CC(N2CCC(c3nc4ccccc4[nH]3)CC2)C(=O)N1c1cccc(F)c1 (stereo unspecified)	152	.	0	.	.	i	0.95
CCn1c(CNc2ccc(Cl)cc2)nnc1SCc1ccc(C)cc1	108	-1.1	0	-8	102	i	0.8
Fc1cccc(C2NN=C(c3ccccc3)S2)c1 (stereo unspecified)	59	-1.7	0	46	103	i	1.1
CC1CCCCN1C(=O)Cn1cnc2c1c(=O)n(C)c(=O)n2C (stereo unspecified)	99	.	3	10	63	i	1.1
CC(NC(=O)NC(=O)c1ccc(Cl)cc1Cl)C1CC1 (stereo unspecified)	101	.	-6	.	.	i	0.78
COc1c(C(=O)NCCSC(C)(C)C)ccc2ccccc12	73	-1.7	-13	-29	82	i	0.98
O=C(O)Cn1cc2c(n1)CCCC2	101	-2.0	-7	-450	84	i	0.97
Cc1ccc(NC(=O)C2CCCN2C(=O)Oc2ccccc2)cc1C (stereo unspecified)	94	-1.7	-5	0	83	i	0.92
CCN(CC)C(=O)/C(=C/c1cccc([N+](=O)[O-])c1)NC(=O)c1ccco1	93	.	0	-14	122	i	1.1
